MenB inh: M. tuberculosis MenB inhibitors, primary screen, biochemical, absorbance; 1,4-dihydroxy-2-naphthoyl-CoA synthase (Mycobacterium tuberculosis (strain ATCC 25618 / …; inhibition, %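 (about 12 µg/mL by stock and volumes)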; actives 0.43% (n = 100,000); AID 540299, 2011; MenB enzyme assay, absorbance read-out; some hits fall short of the stated cut;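 active = mean of two replicates above 30%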;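 also: 0% = no compound and 100% = wells with inactive enzyme; the first replicate is given; strong numbers were not always called active; inactives centre near -10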
Target sequence (P9WNP5 whole entry, looked up): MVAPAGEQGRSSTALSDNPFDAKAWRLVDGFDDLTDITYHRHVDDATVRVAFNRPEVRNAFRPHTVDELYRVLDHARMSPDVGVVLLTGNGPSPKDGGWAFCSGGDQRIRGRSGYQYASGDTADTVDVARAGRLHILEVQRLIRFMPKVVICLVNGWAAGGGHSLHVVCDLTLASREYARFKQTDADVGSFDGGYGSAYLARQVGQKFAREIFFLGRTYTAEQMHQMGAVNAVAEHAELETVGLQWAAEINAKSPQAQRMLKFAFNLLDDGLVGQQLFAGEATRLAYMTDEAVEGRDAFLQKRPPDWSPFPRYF
Polio RdRp inh: poliovirus RdRp elongation inhibitors, primary screen, biochemical, fluorescence polarization, total intensity | actives 0.66% (n = 150,000) | poliovirus polymerase elongation; stronger effect = lower value | % elongation, % (compound at 16.7 µg/mL) | AID 588519, 2011; in the data active = % elongation below about 90%; also: some results filed as inactive read as strong as hits
MbtI inh: MbtI salicylate synthase inhibitors, primary screen, biochemical, fluorescence intensity; purified MbtI enzyme, fluorescence intensity read-out; inhibition, %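 (about 17 µg/mL by stock and volumes)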; actives 0.89% (n = 100,000);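 active = above 50% in both replicates, above 80% if mildly self-fluorescent; inactive = the rest, strongly fluorescent compounds included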;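 also: 0% = mean of negative and 100% = mean of positive controls; one replicate is shown; some compounds called inactive have numbers as strong as hits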
Target sequence (P9WFX0 whole entry, looked up): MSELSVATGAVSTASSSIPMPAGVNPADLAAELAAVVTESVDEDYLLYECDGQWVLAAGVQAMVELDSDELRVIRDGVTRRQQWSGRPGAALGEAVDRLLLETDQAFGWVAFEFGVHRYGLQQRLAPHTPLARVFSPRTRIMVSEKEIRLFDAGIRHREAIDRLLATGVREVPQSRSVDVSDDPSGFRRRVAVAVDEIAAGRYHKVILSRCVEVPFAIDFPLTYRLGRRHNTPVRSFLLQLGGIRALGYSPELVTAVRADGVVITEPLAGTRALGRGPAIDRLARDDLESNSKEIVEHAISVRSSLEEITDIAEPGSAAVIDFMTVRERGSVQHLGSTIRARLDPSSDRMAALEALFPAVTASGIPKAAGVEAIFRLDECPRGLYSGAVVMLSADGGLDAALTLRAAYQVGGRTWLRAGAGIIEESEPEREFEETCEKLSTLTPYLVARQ
Polio RdRp inh intensity: also measured in Polio RdRp inh; calls as there; % elongation; measured here: total intensity read-out; formula for this scale not given here;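 total fluorescence in place of polarization; lower means less elongation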
Active calls of the source: *; x = not tested or not shown; & = joins results of further samples. Rows are unselected; any-hit rate near 1.8%.

SMILES | MenB inh | Polio RdRp inh | Polio RdRp inh intensity | MbtI inh
Cc1cccc2c1nc1s/c(=C/c3cn[nH]c3-c3ccccc3)c(=O)n12 | -12 | 102 | 106 | 1
CC1CCCCN1C(=O)c1ccc(F)cc1F (stereo not drawn) | x | 104 | 104 | -10
O=C(Nc1ccccc1N1CCCCC1)C1CC(=O)N(Cc2ccccc2)C1 (stereo not drawn) | x | 101 | 94 | -1
O=C(NCCN1CCOCC1)c1nc(-c2ccc(Cl)cc2)n2c1CCCCC2 | -12 | 103 | 102 | 4
CCC(=O)N(c1nnc(SCC(=O)c2ccc[nH]2)s1)C1CC1 | -2 | 98 | 101 | 18
O=S(=O)(c1ccc(-n2cnnn2)cc1)N1CC=C(c2ccc(F)cc2)CC1 | 9 | 101 | 103 | -5
Cn1cccc1/C=N/NC(=O)c1sc2cc(Cl)ccc2c1Cl | -19 | 99 | 104 | -5
CCCCN1Cc2c(sc(C)c2C)N(C(=O)c2ccccc2)C1 | 0 | 96 | 105 | 12
CN(Cc1cccs1)C(=O)C1CCN(S(=O)(=O)c2ccccc2)CC1 | -10 | 99 | 104 | 6
CCCOc1ccccc1C1NC(=S)NC(C)=C1C(=O)OC1CCCC(C)C1 (stereo not drawn) | -32 | 103 | 106 | x
NS(=O)(=O)c1cc(C2(O)NC(=O)c3ccccc32)ccc1Cl (stereo not drawn) | -11&-4 | 100&101 | 101&101 | -11&-17
C=CCc1c(C)c(C#N)c2nc3ccccc3n2c1NCCOCCO | -107 | 103 | 103 | 91
Cc1noc(N)c1C(=O)OCc1ccc(C#N)cc1 | -18 | 105 | 101 | -6
O=C(CN1CCN(Cc2ccccc2)C1=O)NCCCN1CCOCC1 | 4 | 100 | 105 | -7
O=C1NC(C(F)(F)F)(C(F)(F)F)N=C2SC=C(C3CC3)N12 | -1 | 106 | 99 | x
O=C(Nc1ccccc1C(=O)NC1CC1)c1ccco1 | -18 | 106 | 104 | -4
O=C(N/C=C/n1cnc2ccccc21)c1ccc(Cl)cc1 | -3 | 98 | 97 | 47
N#C/C(=C(/O)COc1ccccc1)c1nc2ccccc2s1 | -19 | 108 | 108 | -1
CNC(=O)NC(=O)C(Sc1nnnn1-c1cc(C)ccc1C)c1ccccc1 (stereo not drawn) | -8 | 102 | 105 | -9
c1cc2c(cc1CN1CCSCC1)OCO2 | 2 | 98 | 102 | -8

An excerpt of the results above, as a working copy:
SMILES | MenB inh | Polio RdRp inh | Polio RdRp inh intensity | MbtI inh
CCCCN1Cc2c(sc(C)c2C)N(C(=O)c2ccccc2)C1 | 0 | 96 | 105 | 12
CN(Cc1cccs1)C(=O)C1CCN(S(=O)(=O)c2ccccc2)CC1 | -10 | 99 | 104 | 6
CCCOc1ccccc1C1NC(=S)NC(C)=C1C(=O)OC1CCCC(C)C1 (stereo not drawn) | -32 | 103 | 106 | x
NS(=O)(=O)c1cc(C2(O)NC(=O)c3ccccc32)ccc1Cl (stereo not drawn) | -11&-4 | 100&101 | 101&101 | -11&-17
C=CCc1c(C)c(C#N)c2nc3ccccc3n2c1NCCOCCO | -107 | 103 | 103 | 91
Cc1noc(N)c1C(=O)OCc1ccc(C#N)cc1 | -18 | 105 | 101 | -6
O=C(CN1CCN(Cc2ccccc2)C1=O)NCCCN1CCOCC1 | 4 | 100 | 105 | -7
O=C1NC(C(F)(F)F)(C(F)(F)F)N=C2SC=C(C3CC3)N12 | -1 | 106 | 99 | x
O=C(Nc1ccccc1C(=O)NC1CC1)c1ccco1 | -18 | 106 | 104 | -4
O=C(N/C=C/n1cnc2ccccc21)c1ccc(Cl)cc1 | -3 | 98 | 97 | 47
N#C/C(=C(/O)COc1ccccc1)c1nc2ccccc2s1 | -19 | 108 | 108 | -1
CNC(=O)NC(=O)C(Sc1nnnn1-c1cc(C)ccc1C)c1ccccc1 (stereo not drawn) | -8 | 102 | 105 | -9
c1cc2c(cc1CN1CCSCC1)OCO2 | 2 | 98 | 102 | -8

Further compounds follow.
SMILES | MenB inh | Polio RdRp inh | Polio RdRp inh intensity | MbtI inh
Cc1ccc(NC(=O)c2ccc(Oc3ccc(C(=O)Nc4ccc(C)cc4)cc3)cc2)cc1 | -8 | 106 | 113 | x
Cc1nc(N)nc(OCC(F)(F)C(F)F)c1Br | 0 | 101 | 104 | -12
O=C(CSc1ccccc1)Nc1ccccc1C(F)(F)F | x | 101 | 105 | -14
CCOc1ccc(C(=O)c2ccccc2C(=O)O)cc1OCC | 6 | 47* | 54* | 9
Cc1ccc(CNC(=O)Nc2ccc(C(C)(C)C)cc2)n1C | -1 | 101 | 98 | 8
COC(=O)C1=C(Cn2cnc3ccccc32)NC(=O)NC1c1ccc(OC)cc1 (stereo not drawn) | -7 | 100 | 101 | 3
COc1cc(/C=C2/SC(=Nc3ccccc3)N(CCc3ccccc3)C2=O)ccc1OCC(N)=O | -29 | 104 | 108 | 1
O=C(COC(=O)C12CCC(=O)N1c1ccccc1S2)N1CCC(c2ccccc2)=N1 (stereo not drawn) | -4 | 110 | 108 | -5
COc1ccc2[nH]c(=O)c(C(c3nnnn3Cc3ccccc3)N3CCCC3)cc2c1 (stereo not drawn) | -46 | 100 | 102 | -40
N#Cc1ccc(COC(=O)C2CN(Cc3ccc(C#N)cc3)CCS2)cc1 (stereo not drawn) | -16 | 104 | 105 | -2
COc1cccc(NC(=O)Cn2sc3ccccc3c2=O)c1 | -62 | 105 | 104 | 98
Cc1ccc(C(=O)OCC(=O)N2CCC(c3ccccc3)=N2)cc1 | -46 | 102 | 96 | -11
O=C(O)c1cc2c(s1)CCCCC2 | 3 | 100 | 107 | 9
COc1ccc(-c2nc(=S)c3c(n2CCN2CCOCC2)CC(C)(C)OC3)cc1 | -23 | 99 | 100 | 9
Fc1ccc(-c2cn3nc4c(nc3n2)CCCC4)cc1 | 2 | 96 | 132 | x
COc1ccc(S(=O)(=O)N2CCn3c(nc4ccccc43)C2)cc1OC | 5 | 101 | 100 | -6
CCOC(=O)c1c(-c2ccco2)csc1NC(=O)Cn1cnc2ccccc2c1=O | 3 | 107 | 111 | -6
CCc1cc(=O)oc2c3c(c(Cl)cc12)OCN(Cc1ccco1)C3 | -17 | 104 | 104 | 101
CC(=O)NC1(C(F)(F)F)N=C(c2ccc(C)cc2)NC1=O (stereo not drawn) | -20 | 99 | 102 | -7
Cc1cc(C(=O)CSc2n[nH]c(-c3cccs3)n2)c(C)n1-c1nccs1 | -5 | 103 | 111 | 5
CC1CCN(C(=O)COC(=O)Cc2c(Cl)cccc2Cl)CC1 | x | 104 | 109 | -11
COc1ccc(N2CC(C(=O)OCC(=O)Nc3ccccc3C(F)(F)F)CC2=O)cc1 (stereo not drawn) | -7 | 99 | 93 | 10
CC(=O)O/C(=C\c1cn(C(C)=O)c2ccccc12)C(=O)O | -35 | 108 | 109 | x
O=C(COn1nnc2ccccc21)NC(=O)Nc1ccc2c(c1)OCCO2 | 1 | 104 | 106 | -2
CCCn1nnnc1Cn1cnc2scc(-c3ccc(C)s3)c2c1=O | -37 | 107 | 106 | -30
CCOC(=O)CCc1c(C(=O)OCC)[nH]c(CC)c1C(=O)OCc1ccccc1 | -1 | 101 | 98 | 25
CN(C)c1ccc(C=C2C(=O)NC(=S)NC2=O)cc1 | -64 | 102 | 104 | 93
Cc1ccccc1NC1SC(=O)N(CCC(=O)O)C1=O (stereo not drawn) | 5 | 101 | 101 | -4
CC(=O)N1CCOc2ccc(S(=O)(=O)N(C)CC(=O)Nc3ccc(C)cc3)cc21 | -14 | 99 | 101 | 14
COc1cc2c(cc1OC)C(c1ccc(C)s1)CC(=O)N2 (stereo not drawn) | -26 | 103 | 103 | -4
Cc1ccc(C)c(-n2c(SCc3nc(-c4cccs4)oc3C)nnc2-c2cc3sccc3n2C)c1 | -37 | 102 | 104 | 1
CC1=NN(C(=O)COc2cc(C)cc(C)c2)C(O)(C(F)(F)F)C1 (stereo not drawn) | -8 | 101 | 103 | -5
CC(C)NC(=O)c1ccc(-c2ccccc2)s1 | -2 | 105 | 105 | 86
CN(C)C(=O)c1ccc(-c2n[nH]c(=O)c3ccccc23)cc1 | -7 | 102 | 101 | 3
CCOC(=O)N1CCC(N2Cc3ccc(C(=O)NCc4ccccc4OC)cc3C2=O)CC1 | 15 | 100 | 98 | -2
O=C(NC1CCN(Cc2ccccc2)CC1)c1ccc(NS(=O)(=O)c2cccs2)cc1 | -12 | 97 | 103 | -1
COc1ccc(-c2nc(CS(=O)(=O)CC(=O)NC3CCCCC3C)c(C)o2)cc1 (stereo not drawn) | 10 | 99 | 103 | 3
COc1ccc(-n2ncc(C(=O)NCCC(C)C)c2C2CCNCC2)cc1 | -23 | 102 | 98 | 6
COc1ccc(OC)c(-n2c(C)cc(/C=C3/C(=N)N4C(=NC3=O)SN=C4S(=O)(=O)CC(C)C)c2C)c1 | -22 | 104 | 101 | -16
CSC1=NCCN1C(=O)COc1ccc2ccccc2c1 | -33 | 103 | 105 | 8
CCOc1ccc(N2C(=S)NC(c3ccc(N4CCOCC4)cc3)C(C(=O)N3CCOCC3)=C2C)cc1 (stereo not drawn) | -14 | 107 | 115 | -15
O=C(NCc1ccccc1)c1ccc(CS(=O)(=O)Cc2ccccc2F)o1 | -16 | 100 | 103 | -7
CC(C)(C)C(=O)NC1CCN(S(C)(=O)=O)CC1 | 31* | 102 | 101 | -3
COc1ccc2nc(NNC(=O)c3ccc(S(=O)(=O)N4CCCC4)cc3)sc2c1 | -64 | 100 | 103 | 16
CCN(C(C)=O)c1nc(CSc2nnc(C3CCCCC3)n2N)cs1 | -8 | 97 | 100 | 5
O=C(OCN1C(=O)c2ccccc2C1=O)c1ccc2c(c1)C(=O)N(Cc1ccco1)C2=O | -5 | 103 | 105 | 2
COC(=O)c1ccc(OCC(O)CN2C(=O)c3ccccc3C2=O)cc1 (stereo not drawn) | -3 | 102 | 103 | -1
CCO/C=N/c1oc(-c2ccccc2)c(-c2ccccc2)c1C#N | -3 | 101 | 99 | -106
O=C(CSc1ccc(-c2cccs2)nn1)c1ccccc1 | -25 | 102 | 104 | -6
COC(=O)c1ccc(S(=O)(=O)N(CCO)Cc2cc3cc(OC)c(OC)cc3[nH]c2=O)cc1 | -31 | 102 | 101 | 33
CSc1cccc(NC(=O)CCc2nc(C3=CCN(C)CC3)no2)c1 | 15 | 101 | 101 | 18
CC(C)(C)C(=O)COC(=O)C1(c2ccc(F)cc2)CCCC1 | x | 104 | 100 | -6
CC(=O)N1CCc2cc(N)ccc21 | -36 | 102 | 102 | 19
CC(=O)NC1=NC(=O)/C(=C\c2ccc(C)cc2)S1 | -17 | 117 | 130 | x
CCC1c2[nH]c3ccccc3c2CCN1C(=O)Nc1cccc(C)c1 (stereo not drawn) | -8 | 101 | 103 | -3
COc1cccc(NC(=O)c2c(O)c3cccc4c3n(c2=O)CC4)c1 | -32 | 100 | 101 | 62
C/C(=N/O)c1nonc1/C(C)=N\O | 19 | 98 | 103 | -2
CCC(Sc1nc2ccccc2o1)C(=O)O (stereo not drawn) | 9 | 106 | 104 | 0
c1ccc(CNn2cn[n+](Cc3ccccc3)c2)cc1 | x | 102 | 98 | -3
Oc1ccccc1-c1cc(-c2ccccc2)nn1Cc1ccc(Cl)cc1 | -4 | 106 | 105 | x

Later entries:
SMILES | MenB inh | Polio RdRp inh | Polio RdRp inh intensity | MbtI inh
CC(C)(C)OC(=O)N1CCC(c2c(C(=O)N3CCCC3)cnn2-c2ccccc2)CC1 | -8 | 100 | 101 | -28
CCc1nnc(SCC(=O)N2CCNC(=O)C2CC(=O)OC)n1N (stereo not drawn) | -26 | 104 | 105 | 9
O=C1c2ccccc2C(=O)N1CN(C(=O)c1ccccc1)c1ccc(Br)cc1 | -18 | 102 | 97 | -24
N#Cc1c(NC(=O)CSc2ncnc3c2cnn3-c2ccccc2)sc2c1CCC2 | 4 | 132 | 145 | -1
O=C(CSc1nncn1-c1ccccc1)NCc1ccccc1 | -7 | 102 | 104 | -17
CCOC(=O)c1[nH]c2cc(OC)c(OC)cc2c1N1C(=O)CCC1=O | 3 | 104 | 101 | 101
COc1ccc(CCNC(=S)N2CCCC2)cc1OC | -24 | 100 | 102 | -16
O=C(CCCc1ccccc1)Nc1cccnc1 | -13 | 102 | 104 | -16
CC(=O)Oc1c(S(=O)(=O)c2ccccc2)c(C)nn1-c1ccccc1 | 4 | 102 | 104 | 2
CCCOC(=O)COc1ccc2c(=O)c(-c3ccccc3OC)coc2c1 | -20 | 103 | 104 | 10
CS(=O)(=O)N(CC(=O)N1CCN(Cc2ccc3c(c2)OCO3)CC1)Cc1ccccc1 | -11 | 102 | 104 | 3
CCn1c(SCC(N)=O)nnc1-c1cccs1 | -10 | 100 | 96 | -2
OCCN/N=C/c1ccc(Br)cc1 | -34 | 102 | 104 | 12
C(=N\N1CCN(C(c2ccccc2)c2ccccc2)CC1)/c1cccnc1 | -23 | 98 | 101 | 10
O=C(O)c1cc2c(nc3ccccn32)s1 | -11 | 96 | 95 | 144
CCOC(=O)C1CCN(C(=O)c2ccc(CC)cc2)CC1 | -1 | 107 | 107 | -9
CNc1nc(N2CCOCC2)nc(N(c2ccccc2)c2ccccc2)n1 | -3 | 107 | 109 | x

High-throughput results as filed in PubChem BioAssay.
